TRPML1 blocker – qHTS for Inhibitors of the Human Mucolipin Transient Receptor Potential 1 (TRPML1); Mucolipin-1 (Homo sapiens), Q9GZU1; TRPML1-inducible cells, Ca2+ dye fluorescence, FDSS; active compounds read low; inhibition of EC80 agonist-evoked calcium signal; activity change, negative = inhibition, % (test concentration not listed); 0.02% of 390,000 active; AID 624415, 2012; in the data active means activity change below about -50%; inconclusive means about -30% to -50%; inactive means above about -30%;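 also: stimulus is agonist 54-4 at its EC80 concentration; % is scaled to controls: 0 for no effect and ±100 for the full control effect; compound concentration not given in the record; the text of the record puts the active cut at -80%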
Target sequence (Q9GZU1 whole entry, looked up): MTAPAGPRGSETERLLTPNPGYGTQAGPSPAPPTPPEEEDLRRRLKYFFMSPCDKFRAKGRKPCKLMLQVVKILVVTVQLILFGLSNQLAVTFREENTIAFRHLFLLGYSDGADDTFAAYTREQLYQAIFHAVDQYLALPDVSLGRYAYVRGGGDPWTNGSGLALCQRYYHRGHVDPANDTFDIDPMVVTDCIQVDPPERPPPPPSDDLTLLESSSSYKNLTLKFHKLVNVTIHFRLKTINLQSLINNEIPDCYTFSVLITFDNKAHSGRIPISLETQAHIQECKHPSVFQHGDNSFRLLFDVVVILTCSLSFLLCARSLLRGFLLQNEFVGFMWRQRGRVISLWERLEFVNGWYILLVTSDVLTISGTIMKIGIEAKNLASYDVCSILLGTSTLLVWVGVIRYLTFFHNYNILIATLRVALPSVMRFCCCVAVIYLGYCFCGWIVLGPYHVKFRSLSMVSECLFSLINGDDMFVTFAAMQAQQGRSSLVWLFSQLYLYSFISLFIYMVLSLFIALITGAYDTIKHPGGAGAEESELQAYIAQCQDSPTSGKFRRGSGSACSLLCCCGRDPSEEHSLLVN
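Tet-induced TRPML1-DL cells loaded with Ca8 no-wash calcium dye were read kinetically on FDSS. Compound addition was followed by EC80 agonist 54-4 (4 uM final); inhibition was read over 110 s.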
TRPML1 agonist – qHTS for Agonists of the Human Mucolipin Transient Receptor Potential 1 (TRPML1) | Mucolipin-1 (Homo sapiens), Q9GZU1 | TRPML1-expressing cells, Ca2+ dye fluorescence, FDSS; host cell line not named in the record; reference of the full effect not given here | activation, % (test concentration not listed) | 0.12% of 410,000 active; in the data active = activation above about 50%; inconclusive = about 30% to 50%; inactive = below about 30%; also: 0% is about no effect; the text of the record puts the active cut at 80%
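Calcium fluorescence on an FDSS kinetic reader gave the read-out. Tet-induced TRPML1-DL cells were plated overnight, dye-loaded (Ca8 with quencher, 45-90 min, room temperature, dark), then read 110 s after compound addition, and again 110 s after 4uM final 54-4 (EC80).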
gsp agonist – qHTS for Agonist of gsp, the Etiologic Mutation Responsible for Fibrous Dysplasia/McCune-Albright Syndrome: qHTS; gsp mutant cells, cAMP HTRF, 30 min; control for the full effect not named in the record; 0.13% of 340,000 active; Potency, µM (highest dose often 76.9 µM), without a hit: at the highest dose activation (cAMP increase), hits mostly activators; AID 624287, 2012; active = well fitted activation curve with a large enough effect; inconclusive = small, poorly fitted or top-dose-only effect, or another doubt; inactive = no such curve, though single readings can be large or run the other way; cell line not stated here;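 also: phosphodiesterase inhibitor Ro 20-1724 added with compounds to block cAMP breakdown; potency is read from the fitted curve at half-maximal effect; nearly all actives have a fitted effect of over 60% in size; about a fifth of the inactives were tested at one dose only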
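Cells in DMEM/10% FBS with G418 were pretreated with compounds in DMSO plus […] (300 uM stock) for 30 min at 37C. cAMP was measured by HTRF (cAMP-d2 plus anti-cAMP antibody-K) after 30 min at room temperature.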
gsp antagonist – qHTS for Antagonists of gsp, the Etiologic Mutation Responsible for Fibrous Dysplasia/McCune-Albright Syndrome: qHTS; gsp-mutant cells, cAMP HTRF, 30 min; control for the full effect not named in the record; Potency, µM (series often up to 76.9 µM), for the others: at the highest dose activity change, negative = inhibition, hits mostly inhibitors; 0.4% of 340,000 active; AID 624288, 2012; active = falling curve of any shape with a large fitted effect; inconclusive = falling curve, mostly with a smaller effect; inactive = flat or rising curve; cell line not stated here;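 also: intracellular cAMP measured with PDE inhibitor Ro 20-1724 present during compound exposure; potency is read from the fitted curve at half-maximal effect; % is scaled to controls: 0 for no effect and ±100 for the full control effect; nearly all actives have a fitted effect of over 65% in size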
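Measurement of cellular cAMP by homogeneous time-resolved fluorescence following a 30 min compound exposure at 37C. The PDE inhibitor […] was present throughout; the assay buffer was DPBS with 0.05% BSA and 0.005% Tween 20.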
Menin-MLL FL inh – qHTS Assay for Inhibitors Targeting the Menin-MLL Interaction in MLL Related Leukemias: Competition With Fluorescein Labeled MLL-derived Peptide; AID 1766, 2009; FP activity change, % at 61.4 µM; Fluorescence polarization, fluorescein-MLL peptide displacement from menin; 290,000 tested, under 10 active; inconclusive = falling polarisation curve, or a change in total fluorescence; inactive = total fluorescence flat and polarisation flat or rising; no compound was filed as active; the % refers to the polarisation; negative = inhibition;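 also: % of control where 0% means no effect; inhibitors lower the polarisation; unlabelled MLL peptide was the positive control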
ClpP mod – qHTS Assay for Activators of ClpP | Potency, µM (doses to about 57.5 µM), for inactives: at the highest dose activity change, negative = active | ATP-dependent Clp protease proteolytic subunit (Bacillus subtilis (strain 168)), P80244 | purified B. subtilis ClpP, FRET peptide cleavage, 20 min | AID 651965, 2013 | 1.9% of 340,000 active; active = well fitted falling curve with a large enough effect; inconclusive = small, poorly fitted or top-dose-only effect; inactive = no such curve, though single readings can be large or run the other way; also: potency is read from the fitted curve at half-maximal effect; the source files actives as falling curves though it sought activators and does not explain the sign; nearly all actives have a fitted effect of over 65% in size; many hits overshoot -100%
Target sequence (P80244 whole entry, looked up): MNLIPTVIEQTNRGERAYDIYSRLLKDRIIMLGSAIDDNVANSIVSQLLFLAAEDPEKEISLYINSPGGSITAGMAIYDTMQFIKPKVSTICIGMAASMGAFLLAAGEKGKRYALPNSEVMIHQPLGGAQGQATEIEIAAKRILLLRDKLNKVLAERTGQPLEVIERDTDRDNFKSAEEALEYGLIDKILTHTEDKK
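Buffer: 100 mM Tris/HCl pH8, 100 mM KCl, 0.05% low protease BSA, 2.5% glycerol, 0.01% Tween-20. ClpP 10 microg/mL final; 20 min RT; delta FRET normalized to ADEP and DMSO controls.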
Active calls of the source: *; ? = inconclusive; . = not tested or not shown; [ ] = another dose, or the depositor's remark.

SMILES	TRPML1 blocker	TRPML1 agonist	gsp agonist	gsp antagonist	Menin-MLL FL inh	ClpP mod
COc1ccccc1/C=N/NC(=O)c1ccc(-c2ccccc2)cc1	21	6.5	4%	-2%	4.8	?
O=C(Nc1cccn(Cc2ccccc2Cl)c1=O)NC1CCCCC1	-2	2.1	17%	-12%	-2.6	4.6%
O=C(COC(=O)CCSc1ccccc1)NCc1ccccc1	18	-1.7	13%[15.4 µM]	-18%	-3.2	-1.1%
CCOC(=O)c1c(-c2ccccc2)csc1NC(=O)c1cc(-c2ccc(Br)cc2)on1	49	0.5	.	.	.	-6.7%
Cn1c(CSCc2ccc(Cl)cc2Cl)n[nH]c1=S	9	-1.3	8%[15.4 µM]	-2%	1.1	-2.1%
CCOc1ccc(N2C(=O)CC(Sc3nnnn3-c3ccccc3)C2=O)cc1 (stereo unspecified)	-22	0.0	1%[15.4 µM]	15%	-5.6	.
Cc1ccc(S(=O)(=O)/N=C(\c2ccc(Cl)cc2)N2CCOCC2)cc1	-17	0.0	-11%	5%	2.1	-0.9%
CC(=O)c1cccc(NC(=O)N2CCCC(C(=O)c3cc(F)ccc3F)C2)c1 (stereo unspecified)	10	1.7	14%	0%	-1.3	.
CCN1C/C(=N\S(=O)(=O)/N=C2\CN(CC)C(=O)N2CC)N(CC)C1=O	20	-0.4	4%	2%	0.5	1.5%
CC(=O)c1c(C)[nH]c(C(=O)Nc2ccc(S(=O)(=O)N(C)C)cc2)c1C	3	1.4	5%[15.4 µM]	-10%	6.8	.
O=S(=O)(c1ccc2nc(N3CCN(c4cccc(Cl)c4)CC3)ccc2c1)N1CCCCC1	-1	2.4	.	.	.	-7.5%
O=C(c1cc(F)c(F)cc1Cl)N1CCCc2ccccc21	-12	-0.5	?	-8%	-1.2	.
Cc1ccc[n+](-c2nc3ccccc3nc2[N-]S(=O)(=O)c2ccccc2)c1	12	-0.6	2%[15.4 µM]	11%	4.3	.
COC(=O)c1sc2ccccc2c1-n1cccc1C(=O)C(=O)Nc1ccc(F)cc1	9	1.4	10%	-6%	?	-1.3%
CCCCc1ccc(NC(=S)N2CCN(c3ccccn3)CC2)cc1	-4	1.6	-20%	-11%	0.7	.
O=C(Oc1ccc(Cl)cc1)c1ccc(COC(=O)c2cnccn2)cc1	-14	-0.4	12%	12%	-3.1	1.3%
O=C(c1ccccc1)N1CCN(S(=O)(=O)N2CCCCCC2)CC1	-9	-0.4	8%	4%	-0.2	.
CCOC(=O)C1(CCCc2ccccc2)CCN(C(=O)C2CCCN(C(N)=O)C2)CC1 (stereo unspecified)	-1	0.7	5%	0%	-4.1	.
NC(N)=Nc1nc2ccccc2o1	9	-0.1	28%[15.4 µM]	3%	5.5	.
COc1ccc(N(Cc2cc3ccccc3[nH]c2=O)S(=O)(=O)c2ccccc2)cc1	.	.	18%	-5%	1.6	-4.9%
Cc1ccc(-n2nc(C)c3c(C)c(CCC(=O)O)c(C)nc32)cc1	29	-0.8	35%[15.4 µM]	?	-11	-0.9%
c1ccc(OCc2nn3c(C4CCCCC4)nnc3s2)cc1	10	3.3	12%	1%	1.5	-1.9%
CCSc1nc(-c2ccc(OC)cc2)cc(-c2ccc(OC)cc2)c1C#N	43	1.7	-25%	8%	0.7	22µM*
Fc1ccccc1Nc1nc2ccccc2n2nnnc12	4	-1.0	?	-8%	?	?
COc1ccc(-c2cc(C(=O)OCC(=O)Nc3ccc4c(c3)OCO4)c3ccccc3n2)cc1	6	-0.7	14%	1%	1.3	2.5%
CCOC(=O)c1c(C)nc2c(c1C)/C(=N/O)CC(C)(C)C2	5	-0.1	28%	-16%	5.1	-1.4%
Cc1cccc(CSc2nc3c(cc2C#N)CCC3)c1	18	2.2	8%	0%	0.6	-2.8%
Cc1ccc(NCc2cccnc2)cc1	-24	0.1	6%	0%	1.2	-2.7%
O=C(OCC(=O)N1CCN(c2ccccc2)CC1)c1cc(Cl)ccc1[N+](=O)[O-]	0	0.3	-8%	-4%	.	-0.5%
CCOc1ncccc1C(=O)OCc1c(Cl)cccc1Cl	-5	4.6	27%	11%	2.1	-1.3%
N#CC(C#N)=C(N)Nc1cccc(Cl)c1	-4	-0.2	15%[15.4 µM]	0%	0.1	-1.1%
CC(C)NC(=O)CN(c1cccc(Br)c1)S(C)(=O)=O	-7	-0.5	-9%	10%	-0.6	-1.3%
Cc1ccc(NC(=O)CSC(N)=O)cc1Cl	-2	-0.1	14%	-14%	4.4	1.5%
CCc1nnc(NS(=O)(=O)c2ccc(N3C(=O)c4ccccc4C3=O)cc2)s1	-9	-0.9	-2%[15.4 µM]	-19%	-0.6	.
CCCn1nc(C(=O)NCc2ccccn2)c2ccccc2c1=O	-4	0.0	13%	11%	-1.3	2.2%
CCN(CC)S(=O)(=O)c1cc(C(=O)n2cccn2)c(Cl)cc1Cl	-7	-0.3	5%	-18%	-1.6	-0.2%

Only TRPML1 agonist, for five of the compounds above:
Structure,TRPML1 agonist
CC(C)NC(=O)CN(c1cccc(Br)c1)S(C)(=O)=O,-0.5
Cc1ccc(NC(=O)CSC(N)=O)cc1Cl,-0.1
CCc1nnc(NS(=O)(=O)c2ccc(N3C(=O)c4ccccc4C3=O)cc2)s1,-0.9
CCCn1nc(C(=O)NCc2ccccn2)c2ccccc2c1=O,0.0
CCN(CC)S(=O)(=O)c1cc(C(=O)n2cccn2)c(Cl)cc1Cl,-0.3

The results go on.
SMILES	TRPML1 blocker	TRPML1 agonist	gsp agonist	gsp antagonist	Menin-MLL FL inh	ClpP mod
COc1ccc2cc(C(c3nnnn3CCc3ccccc3)N3CCC(O)CC3)c(=O)[nH]c2c1 (stereo unspecified)	5	-0.4	10%	7%	?	-16%
COc1ccc(/C=N/NC(=O)Cn2cnc3ccccc3c2=O)cc1	1	-1.3	3%	8%	11	-1.1%
COc1ccc2c(c1)CCN1C2CCN2C(=O)CCC21 (stereo unspecified)	-17	0.6	-1%	11%	-6.9	.
COCCNc1ncnc2c1cnn2Cc1ccc(Cl)cc1	-3	0.2	-17%	14%	-1.2	-1.6%
Cc1nc(NC(=O)c2ccc(Cl)cc2)nc2cc3c(cc12)OCO3	-11	0.0	39%	0%	5.1	?
O=C(N/N=C\c1ccncc1)c1ccccc1O	26	-0.1	-11%[15.4 µM]	4%	-0.3	.
O=C(CNC(=O)OCc1ccccc1)Oc1ccc2ccc(=O)oc2c1	1	-0.3	?	-11%	4.8	3.8%
O=C(O)c1ccn(CSc2cc(Cl)ccc2Cl)n1	-10	0.4	?	-1%	.	-1.4%
N#CC1=C(N)OC2=C(C(=O)CCC2)C12CCC1(CC2)OCCO1	-9	0.2	-2%	7%	0.1	-9.7%
COc1ccc(-c2nn(-c3ccc(F)cc3)c3c2cnc2ccc(F)cc23)cc1OC	16	1.0	.	.	.	-5.8%
O=C1c2ccccc2C(=O)N1N=Cc1ccc2c(c1)OCO2	4	0.2	-10%	.	.	0.7%
COc1ccc(-n2cc(-c3ccccc3)c3c(Nc4ccc(OC)c(OC)c4)ncnc32)cc1	69	2.2	.	.	.	?
CCCC(=O)Nc1c(-c2cccc(C)c2)c(=O)c2ccccc2n1C	-6	0.1	3%[15.4 µM]	-4%	8.4	.
CCOC(=O)/C=C/COc1ccccc1[N+](=O)[O-]	-4	0.3	-4%[15.4 µM]	-13%	1.4	.
O=c1[nH]c(C2CCN(S(=O)(=O)c3ccc4c(c3)OCCO4)CC2)nc2c1nnn2Cc1ccccc1F	18	-0.3	26%	10%	.	1.4%
CCc1noc(C)c1C(=O)NCCc1c[nH]c2ccccc12	1	0.2	16%[15.4 µM]	7%	.	-0.8%
O=C(NCCN1CCCCC1)c1ccc(Cn2c(SCc3ccc(F)cc3)nc3cccnc32)cc1	-15	-0.6	.	.	.	32µM*
CCc1ccnc(NC(=O)Nc2ccc(OCc3ccccc3)cc2)c1	0	-1.4	4%[15.4 µM]	-18%	0.7	0.5%
CN1C/C(=C/c2ccsc2)C(=O)/C(=C/c2ccsc2)C1	17	-0.4	-6%	3%	6.8	.
C[C@@H]1COC(=O)[C@@H](Cc2ccc(F)cc2)C/C=C\C[C@@H](CC(=O)N[C@H](CO)Cc2ccccc2)C(=O)N1	10	-0.6	-23%	-4%	.	2.0%
COc1ccccc1NC(=O)Nc1nc(C(C)(C)C)cs1	-17	5.5	-28%	-27%	-8.5	2.2%
CCS(=O)(=O)Nc1ccc2c(c1)N(C(C)=O)c1ccccc1CC2	2	-0.1	-15%	0%	9.7	-4.0%
Cc1cc2c(NC(=O)CC(C)(C)CC(=O)O)cccc2nn1	-7	-0.3	26%	6%	1.7	-0.1%
Fc1cccc(-c2nc(-c3ccncc3)no2)c1	-14	0.0	.	.	.	-4.6%
CCOc1ccccc1NC(=O)NCc1ccccn1	-3	0.1	-19%	7%	-8.4	-0.1%
CS(=O)(=O)c1ccc(NC(=O)CCCc2nc3ccccc3c(=O)[nH]2)cc1	5	0.8	8%	5%	.	-9.2%
CCN(CC)C1CCN(C(=O)c2cc(COc3ccc(-n4cncn4)cc3)on2)C1 (stereo unspecified)	-4	-0.3	-2%[15.4 µM]	7%	2.3	-0.2%
O=C(CSc1ccc(Br)cc1)Nc1ccccc1Oc1ccccc1	5	2.0	0%[15.4 µM]	-10%	2.3	0.9%
Nn1cc(-c2ccccc2)nc1SCC(=O)NCCc1ccccc1	5	-0.2	-1%[15.4 µM]	5%	6.4	-0.7%
O=C(CSc1nc2[nH]ncc2c(=O)[nH]1)N1CCCCC1	-16	0.3	-1%	14%	-3.5	-3.5%
Cc1n[nH]c(C)c1S(=O)(=O)N1CCCC(C(=O)NCC2COc3ccccc3O2)C1 (stereo unspecified)	54	0.4	-5%	-9%	1.9	-0.2%
COc1ccc(N2CCN(C(=O)Cn3c(=O)[nH]c4ccsc4c3=O)CC2)cc1	-15	-0.2	16%	-10%	-0.7	-6.4%

Assay outcomes deposited in PubChem by National Center for Advancing Translational Sciences (NCATS).
